# Screening data deposited in PubChem by Broad Institute.
# Ran importin = inhibitors of Ran–importin-beta complex formation, primary screen, biochemical, CFP-Ran/YFP-importin-beta FRET, RCC1, cell-free (AID 434961); inhibition, %; 0.2% of 7,700 active; CFP-Ran/YFP-importin-beta FRET, cell-free; hits give high values;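 active means more than half of the replicate wells above 15% inhibition; inconclusive means exactly half above it; inactive means fewer than half above it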;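 further: 0% = DMSO wells and 100% inhibition = RanGDP control wells on each plate; stock of unstated strength diluted about 400-fold; mean of two wells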
# * = called active by the depositor; u = inconclusive. The list is partial, so the mix of outcomes need not match the whole.
# Sample of the layout, 3 compounds:
canonical_smiles	Ran importin
COc1ccc(S(=O)(=O)N(C)C[C@H]2Oc3ccc(NC(=O)CCN4CCOCC4)cc3C(=O)N([C@H](C)CO)C[C@H]2C)cc1	4.4
C[C@@H]1CCCCO[C@H](CN(C)S(=O)(=O)c2ccccc2)[C@H](C)CN([C@H](C)CO)C(=O)c2cc(N(C)C)ccc2O1	-0.6
C[C@@H]1CCCCO[C@H](CN(C)C(=O)c2ccccc2)[C@@H](C)CN([C@@H](C)CO)C(=O)c2cc(NS(C)(=O)=O)ccc2O1	-1.3

# Results (from the top)
canonical_smiles	Ran importin
COc1ccc(S(=O)(=O)N(C)C[C@H]2Oc3ccc(NC(=O)CCN4CCOCC4)cc3C(=O)N([C@H](C)CO)C[C@H]2C)cc1	4.4
C[C@@H]1CCCCO[C@H](CN(C)S(=O)(=O)c2ccccc2)[C@H](C)CN([C@H](C)CO)C(=O)c2cc(N(C)C)ccc2O1	-0.6
C[C@@H]1CCCCO[C@H](CN(C)C(=O)c2ccccc2)[C@@H](C)CN([C@@H](C)CO)C(=O)c2cc(NS(C)(=O)=O)ccc2O1	-1.3
C[C@H](CO)N1C[C@H](C)[C@@H](CN(C)C)Oc2ccc(NC(=O)Cc3ccccc3)cc2C1=O	5.5
C[C@@H]1CN([C@@H](C)CO)C(=O)c2cccc(NS(=O)(=O)c3ccc(Cl)cc3)c2O[C@@H]1CN(C)C(=O)Nc1cccc2ccccc12	0.8
COc1ccc(NC(=O)N(C)C[C@H]2Oc3c(cccc3N(C)C)C(=O)N([C@@H](C)CO)C[C@@H]2C)cc1	0.8
C[C@@H]1CN([C@H](C)CO)C(=O)c2cc(NC(=O)Nc3ccc4c(c3)OCO4)ccc2O[C@H]1CN(C)CC1CCCCC1	2.3
C[C@@H]1CN([C@H](C)CO)C(=O)c2cc(NS(=O)(=O)c3cccs3)ccc2O[C@H]1CN(C)C(=O)Nc1ccc2c(c1)OCO2	-0.5
COc1ccc(NC(=O)Nc2cccc3c2O[C@@H](CN(C)C(=O)Nc2ccccc2)[C@H](C)CN([C@@H](C)CO)C3=O)cc1	1.5
Cc1noc(C)c1S(=O)(=O)N(C)C[C@@H]1Oc2ccc(NC(=O)Nc3ccc(F)cc3)cc2CC(=O)N([C@H](C)CO)C[C@H]1C	1.6
COc1ccc(S(=O)(=O)N(C)C[C@H]2Oc3c(NC(=O)c4cc(C)nn4C)cccc3C(=O)N([C@@H](C)CO)C[C@H]2C)cc1	-5.6
CNC[C@H]1OCCCC[C@H](C)Oc2ccc(NC(=O)NC(C)C)cc2C(=O)N([C@@H](C)CO)C[C@@H]1C	-4.7
C[C@H](CO)N1C[C@H](C)[C@H](CN(C)C(=O)Nc2ccc(C(F)(F)F)cc2)Oc2ccc(NC(=O)Nc3ccccc3)cc2CC1=O	-1.6
C[C@H](CO)N1C[C@H](C)[C@@H](CN(C)S(=O)(=O)c2cn(C)cn2)Oc2ccc(NC(=O)C3CC3)cc2C1=O	-1.3
CNC[C@@H]1OCCCC[C@@H](C)Oc2ccc(NC(=O)Nc3cccc4ccccc34)cc2C(=O)N([C@@H](C)CO)C[C@H]1C	6.6
C[C@@H]1CN([C@H](C)CO)C(=O)Cc2cc(NC(=O)c3ccncc3)ccc2O[C@H]1CN(C)S(=O)(=O)c1ccccc1	3.9
CC(C)NC(=O)N(C)C[C@@H]1OCCCC[C@H](C)Oc2ccc(NC(=O)c3ccncc3)cc2C(=O)N([C@@H](C)CO)C[C@H]1C	-1.3
C[C@H]1CN([C@@H](C)CO)C(=O)Cc2cc(NC(=O)Nc3ccc4c(c3)OCO4)ccc2O[C@H]1CN(C)CC1CC1	-1.9
C[C@H](CO)N1C[C@H](C)[C@H](CN(C)CC2CC2)Oc2ccc(NC(=O)Cc3ccccc3)cc2CC1=O	1.9
Cc1noc(C)c1NC(=O)N(C)C[C@H]1Oc2ccc(NC(=O)Cc3cn(C)c4ccccc34)cc2CC(=O)N([C@@H](C)CO)C[C@@H]1C	2.5
Cc1noc(C)c1NC(=O)N(C)C[C@H]1Oc2ccc(NC(=O)NC3CCCCC3)cc2C(=O)N([C@@H](C)CO)C[C@@H]1C	-4.2
COc1ccc(NC(=O)Nc2cccc3c2O[C@@H](CN(C)Cc2ccc(C(=O)O)cc2)[C@H](C)CN([C@@H](C)CO)C3=O)cc1	1.2
C[C@H](CO)N1C[C@H](C)[C@H](CN(C)C(=O)NC2CCCCC2)Oc2c(NS(=O)(=O)c3cn(C)cn3)cccc2C1=O	u
C[C@@H]1CN([C@@H](C)CO)C(=O)Cc2cc(NC(=O)NC3CCCCC3)ccc2O[C@H]1CN(C)Cc1ccccc1	-2.7
Cc1noc(C)c1S(=O)(=O)Nc1ccc2c(c1)CC(=O)N([C@H](C)CO)C[C@@H](C)[C@H](CN(C)C)O2	2.5
Cc1noc(C)c1S(=O)(=O)Nc1cccc2c1O[C@H](CN(C)Cc1ccc(Oc3ccccc3)cc1)[C@H](C)CN([C@H](C)CO)C2=O	u
C[C@@H]1CCCCO[C@H](CN(C)C(=O)CCC(F)(F)F)[C@H](C)CN([C@H](C)CO)C(=O)c2cc(NS(=O)(=O)c3cccs3)ccc2O1	u
Cc1noc(C)c1NC(=O)N(C)C[C@@H]1Oc2c(NC(=O)c3ccncc3)cccc2C(=O)N([C@@H](C)CO)C[C@@H]1C	-0.3
C[C@H](CO)N1C[C@H](C)[C@@H](CN(C)C(=O)NC2CCCCC2)Oc2ccc(NC(=O)Nc3ccc(F)cc3)cc2CC1=O	0.0
C[C@@H]1CCCCO[C@@H](CN(C)C(=O)Nc2ccccc2)[C@H](C)CN([C@@H](C)CO)C(=O)c2cc(NC(=O)CCC(F)(F)F)ccc2O1	-5.0

# Shown with each value named: part of the list above.
C[C@H](CO)N1C[C@H](C)[C@@H](CN(C)C(=O)NC2CCCCC2)Oc2ccc(NC(=O)Nc3ccc(F)cc3)cc2CC1=O
  Ran importin: 0.0
C[C@H](CO)N1C[C@H](C)[C@H](CN(C)C(=O)NC2CCCCC2)Oc2c(NS(=O)(=O)c3cn(C)cn3)cccc2C1=O
  Ran importin: u
C[C@@H]1CN([C@H](C)CO)C(=O)Cc2cc(NC(=O)c3ccncc3)ccc2O[C@H]1CN(C)S(=O)(=O)c1ccccc1
  Ran importin: 3.9
C[C@@H]1CCCCO[C@@H](CN(C)C(=O)Nc2ccccc2)[C@H](C)CN([C@@H](C)CO)C(=O)c2cc(NC(=O)CCC(F)(F)F)ccc2O1
  Ran importin: -5.0

# Further records
canonical_smiles	Ran importin
C[C@@H]1CN([C@H](C)CO)C(=O)c2cccc(NC(=O)Nc3ccc(C(F)(F)F)cc3)c2O[C@@H]1CN(C)S(=O)(=O)c1cn(C)cn1	-3.5
Cc1noc(C)c1NC(=O)Nc1ccc2c(c1)C(=O)N([C@@H](C)CO)C[C@@H](C)[C@@H](CN(C)C(=O)C1CCCCC1)OCCCC[C@H](C)O2	-2.6
Cc1noc(C)c1S(=O)(=O)N(C)C[C@@H]1Oc2ccc(N(C)C)cc2CC(=O)N([C@H](C)CO)C[C@@H]1C	2.9
CC(C)NC(=O)Nc1cccc2c1O[C@H](CN(C)Cc1ccccc1)[C@H](C)CN([C@@H](C)CO)C2=O	0.1
C[C@@H]1CN([C@@H](C)CO)C(=O)Cc2cc(NS(C)(=O)=O)ccc2O[C@@H]1CN(C)Cc1ccncc1	-3.5
C[C@H]1CN([C@@H](C)CO)C(=O)CCCn2nncc2CO[C@H]1CN(C)C(=O)c1ccccc1	-3.1
C[C@H](CO)N1C[C@H](C)[C@H](CN(C)C(=O)Nc2cccc3ccccc23)Oc2c(NC(=O)C3CCOCC3)cccc2C1=O	2.3
Cc1noc(C)c1NC(=O)N(C)C[C@H]1OCCCC[C@H](C)Oc2ccc(NC(=O)CCC(F)(F)F)cc2C(=O)N([C@H](C)CO)C[C@@H]1C	-0.9
C[C@H](CO)N1C[C@H](C)[C@@H](CN(C)C(=O)Nc2ccc(F)cc2)OCCCC[C@H](C)Oc2ccc(NS(=O)(=O)c3ccccc3)cc2C1=O	-1.5
C[C@H](CO)N1C[C@H](C)[C@H](CN(C)C)Oc2ccc(NS(=O)(=O)c3ccccc3)cc2C1=O	-3.2
C[C@H](CO)N1C[C@H](C)[C@H](CN(C)S(=O)(=O)c2ccccc2)OCCCC[C@H](C)Oc2ccc(NC(=O)C3CCCCC3)cc2C1=O	2.9
C[C@H](CO)N1C[C@H](C)[C@@H](CN(C)C(=O)Nc2ccccc2)Oc2ccc(N(C)C)cc2C1=O	2.4
C[C@H](CO)N1C[C@H](C)[C@@H](CN(C)CC2CC2)Oc2ccc(NS(C)(=O)=O)cc2CC1=O	4.6
C[C@H]1CN([C@@H](C)CO)C(=O)c2cccc(NS(C)(=O)=O)c2O[C@H]1CN(C)S(=O)(=O)c1cccs1	0.8
C[C@H](CO)N1C[C@H](C)[C@H](CN(C)C(=O)Nc2ccccc2)Oc2ccc(NC(=O)CCC(F)(F)F)cc2C1=O	4.0
C[C@@H]1CN([C@H](C)CO)C(=O)c2cc(NS(=O)(=O)c3cccs3)ccc2O[C@@H](C)CCCCO[C@H]1CN(C)S(=O)(=O)c1cccs1	-0.7
C[C@@H]1CCCCO[C@@H](CN(C)Cc2ccc(C(=O)O)cc2)[C@H](C)CN([C@@H](C)CO)C(=O)c2cc(NC(=O)C3CCCCC3)ccc2O1	4.1
C[C@@H]1CN([C@H](C)CO)C(=O)CCCn2cc(nn2)CO[C@@H]1CN(C)C(=O)c1ccccc1	-0.3
CC(C)NC(=O)N(C)C[C@H]1OCCCC[C@H](C)Oc2ccc(NC(=O)Nc3ccc(F)cc3)cc2C(=O)N([C@H](C)CO)C[C@@H]1C	-0.8
C[C@@H]1CCCCO[C@H](CN(C)S(=O)(=O)c2ccccc2)[C@H](C)CN([C@@H](C)CO)C(=O)c2cc(NS(C)(=O)=O)ccc2O1	-6.3
C[C@@H]1CN([C@@H](C)CO)C(=O)Cc2cc(NS(C)(=O)=O)ccc2O[C@@H]1CN(C)Cc1ccc(Cl)c(Cl)c1	0.6
C[C@H](CO)N1C[C@H](C)[C@H](CN(C)C)Oc2c(NC(=O)Nc3ccc(F)cc3)cccc2C1=O	u
C[C@@H]1CN([C@H](C)CO)C(=O)c2cccc(NS(=O)(=O)c3cccs3)c2O[C@@H]1CN(C)Cc1ccc2c(c1)OCO2	u
CC(C)NC(=O)N(C)C[C@H]1OCCCC[C@@H](C)Oc2ccc(NC(=O)c3ccncc3)cc2C(=O)N([C@@H](C)CO)C[C@@H]1C	0.4
COc1ccc(S(=O)(=O)N(C)C[C@@H]2Oc3ccc(NC(=O)C4CC4)cc3C(=O)N([C@H](C)CO)C[C@H]2C)cc1	1.1
C[C@@H]1CN([C@@H](C)CO)C(=O)c2cccc(N(C)C)c2O[C@H]1CN(C)Cc1ccc(C(F)(F)F)cc1	-0.1
C[C@H]1CCCCO[C@@H](CN(C)C(=O)C2CCCCC2)[C@@H](C)CN([C@@H](C)CO)C(=O)c2cc(NS(=O)(=O)c3cccs3)ccc2O1	-1.1
C[C@H]1CCCCO[C@H](CN(C)C)[C@@H](C)CN([C@@H](C)CO)C(=O)c2cc(NC(=O)Nc3cccc4ccccc34)ccc2O1	-3.8
CNC[C@@H]1Oc2ccc(NC(=O)NC(C)C)cc2CC(=O)N([C@H](C)CO)C[C@H]1C	3.7
C[C@@H]1CN([C@@H](C)CO)C(=O)Cc2cc(NC(=O)CCCN(C)C)ccc2O[C@H]1CN(C)C(=O)Nc1ccccc1	1.1
C[C@H](CO)N1C[C@H](C)[C@H](CN(C)C(=O)CCCN(C)C)OCCCC[C@H](C)Oc2ccc(NS(C)(=O)=O)cc2C1=O	1.9
COc1ccc(CN(C)C[C@@H]2Oc3c(NC(=O)NC4CCCCC4)cccc3C(=O)N([C@H](C)CO)C[C@@H]2C)cc1	-2.0
COc1ccc(NC(=O)Nc2cccc3c2O[C@H](CN(C)S(=O)(=O)c2ccc(Cl)cc2)[C@H](C)CN([C@@H](C)CO)C3=O)cc1	-4.5
CNC[C@@H]1Oc2c(NC(=O)Nc3c(C)noc3C)cccc2C(=O)N([C@H](C)CO)C[C@@H]1C	0.1
C[C@@H]1CN([C@@H](C)CO)C(=O)c2cc(N(C)C)ccc2O[C@@H](C)CCCCO[C@@H]1CN(C)S(=O)(=O)c1ccccc1	5.2
Cc1noc(C)c1NC(=O)Nc1ccc2c(c1)CC(=O)N([C@H](C)CO)C[C@@H](C)[C@@H](CN(C)S(=O)(=O)c1cn(C)cn1)O2	0.1
CC(C)NC(=O)N(C)C[C@@H]1Oc2ccc(NC(=O)C3CC3)cc2CC(=O)N([C@@H](C)CO)C[C@H]1C	3.5
C[C@@H]1CN([C@H](C)CO)C(=O)c2cc(NC(=O)CCCN(C)C)ccc2O[C@H]1CN(C)Cc1ccncc1	-5.3
C[C@H](CO)N1C[C@H](C)[C@H](CN(C)Cc2ccccc2)Oc2ncc(Br)cc2C1=O	8.2
C[C@@H]1CN([C@@H](C)CO)C(=O)Cc2cc(NC(=O)c3ccncc3)ccc2O[C@H]1CN(C)S(=O)(=O)c1ccccc1	2.7
C[C@H](CO)N1C[C@H](C)[C@H](CN(C)C)Oc2ccc(NS(C)(=O)=O)cc2C1=O	4.5
C[C@H]1CN([C@@H](C)CO)C(=O)c2cccc(NC(=O)Nc3ccc(C(F)(F)F)cc3)c2O[C@H]1CN(C)C(=O)NC1CCCCC1	-2.9
C[C@@H]1CCCCO[C@H](CN(C)S(=O)(=O)c2cn(C)cn2)[C@H](C)CN([C@@H](C)CO)C(=O)c2cc(NS(=O)(=O)c3cn(C)cn3)ccc2O1	u
C[C@@H]1CCCCO[C@H](CN(C)C)[C@H](C)CN([C@H](C)CO)C(=O)c2cc(NC(=O)c3ccncc3)ccc2O1	-1.0
CC(C)NC(=O)N(C)C[C@H]1OCc2cnnn2CCCC(=O)N([C@H](C)CO)C[C@H]1C	-2.0
C[C@H](CO)N1C[C@H](C)[C@H](CN(C)CC2CC2)Oc2c(NC(=O)c3ccc(-c4nccs4)cc3)cccc2C1=O	-0.4
